# Polio RdRp inh – poliovirus RNA polymerase inhibition. poliovirus polymerase elongation, fluorescence polarization; stronger effect = lower value. % elongation, % (compound at 16.7 µg/mL). 0.66% of 150,000 active; in the data active = % elongation below about 90%; also: some results filed as inactive read as strong as hits
# Target sequence (P03300 1749-2209 limits assumed): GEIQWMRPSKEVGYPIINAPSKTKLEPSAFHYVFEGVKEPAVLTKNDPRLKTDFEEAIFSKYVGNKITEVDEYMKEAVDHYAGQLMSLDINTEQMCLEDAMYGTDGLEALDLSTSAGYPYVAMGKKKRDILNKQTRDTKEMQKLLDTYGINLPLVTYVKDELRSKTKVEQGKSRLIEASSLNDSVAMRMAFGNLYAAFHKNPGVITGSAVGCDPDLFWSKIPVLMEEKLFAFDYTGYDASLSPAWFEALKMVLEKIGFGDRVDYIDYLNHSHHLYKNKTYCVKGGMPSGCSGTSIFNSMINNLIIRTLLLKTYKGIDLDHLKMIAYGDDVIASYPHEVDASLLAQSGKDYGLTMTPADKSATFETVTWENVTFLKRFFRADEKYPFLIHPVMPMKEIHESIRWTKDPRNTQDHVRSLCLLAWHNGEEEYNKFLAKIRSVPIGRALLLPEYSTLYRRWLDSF
# Polio RdRp inh intensity – further read-out of Polio RdRp inh, marked with its call; % elongation; measured here: total intensity read-out; formula for this scale not given here;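 total fluorescence in place of polarization; lower means less elongation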
# An asterisk follows results filed as active.
SMILES,Polio RdRp inh,Polio RdRp inh intensity
Cc1ccc(/C=C/c2nc3ccccc3n2S(=O)(=O)c2cccc(Cl)c2)cc1,110,109
O=C(c1cccc(Cl)c1)N1c2ncnn2C2(CCCCC2)[C@@H]2CCCC[C@@H]21,105,105
Cn1c(=O)c2c(nc(Oc3ccccc3Cl)n2Cc2ccc(C#N)cc2)n(C)c1=O,104,107
CCOc1ccccc1CNC(=O)C1CCN(S(=O)(=O)c2cccc3nonc23)CC1,110,114
COc1ccc(C(=O)Nc2cccc(-c3nc4cccnc4s3)c2C)c(OC)c1,107,101
CCOc1ccccc1N(C)C(=O)C1CCCN(c2ncnc3onc(-c4ccc(F)cc4)c23)C1 (stereo not given),107,112
Cc1cccc(Cn2c(=O)n(-c3ccc(Cl)c(Cl)c3)c(=O)c3c(C)c(C)sc32)c1,109,113
CC1=C(C(=O)Nc2ccc(C)cc2C)C(c2ccc(C(C)C)cc2)n2nc(C(F)(F)F)nc2N1 (stereo not given),101,103
Cc1cccc(OCC(=O)Nc2ccccc2OCc2cc(=O)n3ccccc3n2)c1,113,111
COc1ccc(C2=C(N3CCN(c4cc(C)ccc4C)CC3)c3ccccc3C2=O)cc1,109,111
CCOc1ccc(CNC(=O)c2cc(-c3ccc(Cl)s3)nc3ccccc23)cc1,108,110
Cc1nn(-c2ccccc2)c2c1N(CC(=O)NCc1ccc(N(C)C)cc1)C(=O)CS2,103,110
COc1ccc(NC(=O)c2cccc3c(=O)c4c([nH]c23)CCCC4)cc1,107,108
CCN1C(=O)c2ccccc2Sc2ccc(NC(=O)N3CCN(c4cc(C)ccc4C)CC3)cc21,108,109
COC(=O)c1cc2sc(C)cc2n1Cc1nc(-c2cccc(Br)c2)oc1C,111,113
CCNc1nc(NCc2ccc(F)cc2)c2cnn(C)c2n1,103,108
O=C(c1ccccc1F)N1CCC(c2nc3c(nnn3Cc3cccc(F)c3)c(=O)[nH]2)CC1,104,106
CC(=O)c1ccc(NC(=O)CCCSc2nc(-c3ccco3)cc(C(F)(F)F)n2)cc1,104,106
CCc1ccc2oc(-c3ccc(NC(=O)c4cc(OC)c(OC)c(OC)c4)cc3)nc2c1,104,113
COc1ccc(C(=O)NNc2ncnc3c2cnn3-c2ccc(C)cc2C)cc1,101,107
CCOc1ccccc1NC(=O)CCS(=O)(=O)c1cccc2nsnc12,102,104
CC(C)(C)n1cnc2cc(NCc3ccccc3Cl)ccc21,103,107
O=C(Cn1cc(SCc2ccc(C(F)(F)F)cc2)c2ccccc21)N1CCCCCC1,115,119
Cc1sc2ncn(CC(=O)N3CCN(c4ccc(F)cc4)CC3)c(=O)c2c1S(=O)(=O)N1CCC(C)CC1,105,107
COc1cccc(CN(Cc2ccco2)c2cnc(S(C)(=O)=O)nc2C(=O)Nc2cccc(Cl)c2C)c1,101,105
O=C(NCC(c1ccc2c(c1)OCO2)N1CCN(c2ccccc2)CC1)c1ccc(F)c(F)c1 (stereo not given),109,106
Cc1cccc(N2CCN(C(=O)Cn3nc(C)c4sc5ccccc5c4c3=O)CC2)c1C,106,114
COc1ccc(NC(=O)C2CCN(c3cnccn3)CC2)cc1Cl,107,114
O=C(CN1C(=O)COc2ccc(S(=O)(=O)NC3CCCC3)cc21)NCc1ccc(Cl)cc1,108,112
O=C(COc1ccccc1)NCc1ccc2c(c1)CCN2C(=O)c1ccccc1,112,96
COc1cccc(CNCCSc2nnnn2-c2ccccc2)c1OC,111,109
COc1ccccc1N1CCN(C(=O)Cn2cnc3sc(C)c(S(=O)(=O)N4CCC(C)CC4)c3c2=O)CC1,105,109
CCCCc1ccc(NC(=O)CSc2nc3ccccc3nc2N2CCOCC2)cc1,106,104
COc1cc2c(cc1OC)C(COc1ccc(F)cc1)N(C(=O)c1cccc(F)c1)CC2 (stereo not given),108,114
COC(=O)c1sccc1S(=O)(=O)N(CC(=O)Nc1ccc(C)cc1)c1ccccc1,114,113
O=C(Nc1ccc(O)c(-c2nc3ccccc3o2)c1)c1ccc(Br)cc1,98,105
COc1ccc(-c2nnc(SCc3cccc(Cl)c3)o2)cc1,108,110
CCc1ccccc1NC(=O)C1(C)Cc2ccccc2C(=O)O1 (stereo not given),105,107
CCOc1ccc(CCNC(=O)Cn2nc(-c3ccc(C)cc3)ccc2=O)cc1OCC,106,106
CC(C)NC(=O)N1CCC(N2CCN(Cc3ccc(F)cc3)C(=O)C2=O)CC1,108,114
COc1ccc(NC(=O)c2oc3ccccc3c2NC(=O)Cc2cccs2)cc1,101,100
COc1cc(OC)c(OC)cc1CN1CCc2nc(N3CCN(C)CC3)ncc2C1,107,106
Cc1ccc(OC(C)C(=O)N2CCN(CCc3ccncc3)CC2)cc1C (stereo not given),105,109
Cc1ccc(-n2nc(CO)c(C(=O)NCCCc3ccccc3)n2)cc1,109,111
COc1ccc(-c2noc(N3CCC(C(=O)N(C)c4cc(Cl)ccc4OC)CC3)n2)cc1,103,107
CCOC(=O)c1c(NC(=O)c2ccc(S(=O)(=O)N(CC(C)C)CC(C)C)cc2)sc2c1CCN(C(=O)OCC)C2,115,122
Cc1ccc(N2CC(NC(=O)C3CC3)CC2=O)cc1C (stereo not given),106,110
COc1ccc(NC(=O)CSCc2cnn(-c3ccccc3)c2-n2cccc2)cc1,127,141
O=c1c2oc3ccccc3c2n(Cc2ccccc2Cl)c(=O)n1Cc1ccc2c(c1)OCO2,97,104
COc1cccc(C(=O)N2CCN(CCc3ccncc3)CC2)c1,107,107
CCOc1ccc(NS(=O)(=O)c2ccc(-c3cc(C)no3)s2)cc1,103,111
CC(=O)N1CCc2c(sc3c2c(=O)n(Cc2ccccc2)c(=O)n3Cc2cccc(Cl)c2)C1,104,110
CCOc1cccc(C2c3c(oc4cc(C)c(C)cc4c3=O)C(=O)N2c2nc(C)c(C)s2)c1 (stereo not given),105,106
Cc1ccccc1-c1nc(CN2CCC(C(=O)NC(C)C)CC2)c(C)o1,108,105
CCCn1c(SCC(O)c2cccc(OC)c2)nc2ccccc21 (stereo not given),112,115
COc1cc(C(CC(=O)Nc2cccc(C(C)=O)c2)N2Cc3ccccc3C2=O)cc(OC)c1OC (stereo not given),104,105
CCCN(C(=O)Cn1ncc2c([nH]c3ccc(C)cc32)c1=O)c1ccccc1C,102,110
Cc1ccc(OCC(=O)Nc2nnc(S(=O)(=O)N3c4ccccc4CC3C)s2)cc1 (stereo not given),112,100
Cc1ccc(F)cc1S(=O)(=O)N1CCC(c2nc3ccccc3s2)CC1,107,110
CCOc1ccccc1NC(=O)CN1C(=O)CC(c2ccco2)Sc2ccccc21 (stereo not given),107,113
# (cont.)
SMILES,Polio RdRp inh,Polio RdRp inh intensity
CCCCN1C(=O)C(O)(c2c(C)[nH]c3ccccc23)c2cc(Br)ccc21 (stereo not given),104,109
COc1cccc2cc(C(=O)Nc3ccc(C)cc3)c(=O)oc12,108,111
CCOC(=O)CNC(=O)Cn1nc(N2CCN(c3ccccc3)CC2)ccc1=O,100,105
O=c1c(-c2cc(-c3ccc(Cl)cc3)nc3c2COc2ccccc2-3)coc2ccccc12,105,107
CCc1ccc(CNCc2c(C(=O)O)n(Cc3cccc(F)c3)c3cc(OC)ccc23)cc1,112,115
CCSc1nnc(NC(=O)c2cc(=O)c3cc(C)ccc3o2)s1,106,109
Cc1ccc(S(=O)(=O)N2CCCc3cc(NC(=O)c4ccc(F)c(F)c4)ccc32)cc1,108,114
CCN(CC)c1cc2c(cc1F)c(=O)c(S(=O)(=O)c1ccc(C)cc1)cn2Cc1ccc(F)cc1,111,114
COc1ccc(CC(=O)NC2CC(=O)N(c3cccc(F)c3)C2)cc1 (stereo not given),102,103
COc1cc(OC)c(NC(=O)c2cnn(-c3ccccc3)c2-n2cccc2)cc1Cl,104,103
Cc1cc(C)c(S(=O)(=O)NCCS(=O)(=O)N2CCN(c3ccccc3)CC2)c(C)c1,109,102
Cc1nc2ccc(S(=O)(=O)N(C)CC(=O)Nc3ccc(Br)c(C)c3)cc2s1,109,109
COc1cc(NC(=O)C(NC(=O)C2CCC(C)CC2)C(C)C)cc(OC)c1OC (stereo not given),105,105
COc1ccc(-n2nc(C(=O)Nc3ccc(C)cn3)c3c4ccccc4n(C)c3c2=O)cc1Cl,106,105
CCCCNC(=O)c1sc2ncccc2c1-n1cccc1,111,110
Fc1cc(F)c2ncc3c(-c4ccccc4)nn(-c4cccc(Cl)c4)c3c2c1,105,107
COc1cc(OC)c(NC(=O)CN2CCCN(Cc3ccccc3C)S2(=O)=O)cc1Cl,102,104
COc1cc(C(=O)Nc2nnc(S(=O)(=O)N(C)c3ccccc3)s2)cc(OC)c1OC,110,111
Cc1ccc(NC(=O)CSc2nc(=O)n(CCCN(C)C)c3c2CCC3)cc1F,98,98
COC(=O)Cc1c(C)c2cc3c(c(C)c2oc1=O)OCN(CCc1ccc(OC)cc1)C3,106,107
Cc1ccc(S(=O)(=O)c2nc(-c3ccco3)oc2SCC(C)C)cc1,106,110
COc1cc2c(cc1OC)C(COc1ccc(C(C)C)cc1)N(C(=O)c1ccc(S(=O)(=O)N3CCCC3)cc1)CC2 (stereo not given),107,101
CCOc1ccc(NC(=O)CCn2c(=O)c3cccn3c3cccnc32)cc1,109,116
Cc1cccc(NC(=O)c2oc3ccccc3c2NC(=O)Cc2coc3ccc(C(C)C)cc23)c1,116,117
Cc1ccc(-c2noc(-c3ccccc3OCC(=O)Nc3ccccc3[N+](=O)[O-])n2)cc1,111,113
CCc1cccc(NC(=O)C2CCN(S(=O)(=O)c3cccc(-c4noc(C)n4)c3)CC2)c1,111,109
CCC(CO)NC(=O)C(=O)Nc1c2c(nn1-c1ccc(F)cc1)CSC2 (stereo not given),101,106
Cc1ccc(-n2c(=O)c3c(cnn3C)n(CC(=O)Nc3ccccc3C)c2=O)cc1,106,108
Cc1ccc(CN(C(=O)COc2ccc(C(C)(C)C)cc2)C2CCS(=O)(=O)C2)o1 (stereo not given),110,111
CCn1nc(C)c2c(-c3ccccc3)cc(=O)n(C(C)C(=O)NCc3cccc(OC)c3)c21 (stereo not given),106,113
CN(C)c1ccc(CN(CC2CCCO2)C(=O)c2ccc(Br)cc2)cc1 (stereo not given),110,109
Cc1ccc(NC(=O)Cn2c(CCC(=O)O)ccc2-c2ccc(Cl)cc2)cc1,113,117
COc1ccccc1NC(=O)Cn1cnc2ccc(S(=O)(=O)N3CCC(C)CC3)cc2c1=O,108,108
COc1ccc(CNC(=O)c2cc(=O)[nH]c3ccc(S(=O)(=O)N4CCCC4)cc23)c(OC)c1,114,102
COc1ccc(CCNC(=O)Cn2cc(S(=O)(=O)Cc3ccccc3F)c3ccccc32)cc1OC,109,114
CCNC(=O)C1CCN(c2nc3ccccc3nc2C(F)(F)F)CC1,112,104

# Grouped by structure: those above with two or more sulfur atoms.
SMILES,Polio RdRp inh,Polio RdRp inh intensity
CCOc1ccccc1NC(=O)CCS(=O)(=O)c1cccc2nsnc12,102,104
Cc1sc2ncn(CC(=O)N3CCN(c4ccc(F)cc4)CC3)c(=O)c2c1S(=O)(=O)N1CCC(C)CC1,105,107
COc1ccccc1N1CCN(C(=O)Cn2cnc3sc(C)c(S(=O)(=O)N4CCC(C)CC4)c3c2=O)CC1,105,109
COC(=O)c1sccc1S(=O)(=O)N(CC(=O)Nc1ccc(C)cc1)c1ccccc1,114,113
CCOC(=O)c1c(NC(=O)c2ccc(S(=O)(=O)N(CC(C)C)CC(C)C)cc2)sc2c1CCN(C(=O)OCC)C2,115,122
CCOc1ccc(NS(=O)(=O)c2ccc(-c3cc(C)no3)s2)cc1,103,111
Cc1ccc(OCC(=O)Nc2nnc(S(=O)(=O)N3c4ccccc4CC3C)s2)cc1 (stereo not given),112,100
Cc1ccc(F)cc1S(=O)(=O)N1CCC(c2nc3ccccc3s2)CC1,107,110
CCSc1nnc(NC(=O)c2cc(=O)c3cc(C)ccc3o2)s1,106,109
Cc1cc(C)c(S(=O)(=O)NCCS(=O)(=O)N2CCN(c3ccccc3)CC2)c(C)c1,109,102
Cc1nc2ccc(S(=O)(=O)N(C)CC(=O)Nc3ccc(Br)c(C)c3)cc2s1,109,109
COc1cc(C(=O)Nc2nnc(S(=O)(=O)N(C)c3ccccc3)s2)cc(OC)c1OC,110,111
Cc1ccc(S(=O)(=O)c2nc(-c3ccco3)oc2SCC(C)C)cc1,106,110

# More structures.
SMILES,Polio RdRp inh,Polio RdRp inh intensity
COc1ccc(OC)c(CNC(=O)c2ccc(Sc3ccc(Cl)cc3)c(NC(C)=O)c2)c1,106,109
COC(=O)c1c(-c2cccs2)csc1NC(=O)c1ccc(OC)c(OC)c1,69*,72*
CCOC(=O)c1ccc(NC(=O)CSc2nccn2-c2cc(C)cc(C)c2)cc1,107,109
N#Cc1ccc(-c2cccs2)nc1SCc1c(F)cccc1Cl,101,103
Cc1ccc(C(=O)Nc2cc3nn(-c4ccccc4)nc3cc2Cl)c(C)c1,104,106
COc1ccc(Cn2c(CO)cnc2SCc2ccc(F)cc2)cc1,105,108
COc1cccc(C2C(C(=O)Nc3ccc(C)cc3C)=C(C)Nc3c(C(=O)Nc4ccccc4)cnn32)c1 (stereo not given),98,105
Cc1cc(C)cc(-n2c(SCC(=O)N3CCCCCC3)nc3c([nH]c4ccccc43)c2=O)c1,112,118
Cc1ccccc1NC(=O)[C@H](CSCc1ccccc1)N1Cc2ccccc2C1=O,107,111
COc1ccc2c(c1)CCc1sc(NC(=O)c3ccc(Br)cc3)nc1-2,103,104
CCOc1ccccc1CNC(=O)C1CCN(C2=NS(=O)(=O)C(c3ccc(C)c(C)c3)=C2C)CC1,107,113
CCOc1ccc(NC(=O)Cn2c(CCC(=O)O)ccc2-c2ccc(C)cc2)cc1,108,108
Cc1ccc2[nH]c(CSc3nnc(C)s3)cc(=O)c2c1,106,105
CC1C(=O)N2CCCc3cc(S(=O)(=O)Nc4ccc(Br)cc4F)cc1c32 (stereo not given),102,106
Cc1ccc(C)c(NC(=O)C2CCCN(c3ncnc4onc(C)c34)C2)c1 (stereo not given),101,104
O=C(NCCc1ccc(Cl)cc1)c1cnc2sc(N3CCCC3)nn2c1=O,110,109

# Screens: PubChem BioAssay, ICCB-Longwood Screening Facility, Harvard Medical School

# These rows are one share of the data, so the mix of outcomes need not match the whole.
